PrP 5UTR inh = inhibition of PrP 5' UTR reporter expression. AID 488862. cell-based PrP 5' UTR mRNA reporter, plate reader. inhibition, % (no concentration beside the values). 340,000 tested, 0.35% active;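 active = every replicate at 50% or more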;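 note: 0 = median of the neutral control wells; tested in H4 reporter cells; numbers are from one replicate; inactives centre near -14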
Autofluor counter = compound fluorescence in toxin protease inhibitor counterscreen; compound autofluorescence counterscreen, microsphere flow cytometry; stronger effect = higher value; fluorescence intensity (test concentration not listed); 360,000 tested, 3.1% active; AID 624483;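 active = at least 3 SD above the mean of all compounds, about 16000 in these data; inconclusive = too few beads counted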;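 note: 100 nL of 1 mM stock went into each well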
BJeLR viability = kills HRASV12-expressing BJeLR cells; BJeLR (HRASV12) viability, CellTiter-Glo ATP luminescence, 48 h; reference of the scale not given here; inhibition, % (test concentration not listed); 300,000 tested, 0.17% active;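 active = replicate mean above 50%; inconclusive = above 50% but judged a plate artefact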;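 note: 50 nL library stock added to about 25 µL; numbers are from one replicate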
Mtb hypoxia rep = inhibitors of hypoxia-regulated fluorescent reporter in Mycobacterium tuberculosis. M. tuberculosis hypoxia-regulated fluorescent reporter, fluorescence. fluorescence inhibition, % (concentration not given with the values). 300,000 tested, 0.1% active;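 active = 35 to 45% if threefold the growth effect, above 45% if 1.5-fold the growth effect; inactive = the rest, general growth blockers included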;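 note: wells of about 50 µL received 100 nL stock; 0% = vehicle wells and 100% = reference inhibitor wells; whole bacteria with a GFP reporter of the hypoxia response; strong numbers were not always called active; many hits fall short of the cut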
Sa ugtP lethal = growth inhibition of S. aureus ugtP deletion strain; S. aureus RN4220 ugtP deletion, OD600 growth, 16 h; some inactives read as strong as hits; growth inhibition, % (concentration not given with the values); 330,000 tested, 0.54% active; AID 1259309;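 active = z-score under -3 and OD600 up to 0.15 on both plates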;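 note: plate controls were untreated wells for no effect and antibiotic for full effect; wells of about 80 µL received 100 nL stock; the first replicate is given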
Sa RN4220 lethal = kills Staphylococcus aureus RN4220; S. aureus RN4220 growth, OD600, 16 h; 330,000 tested, 0.33% active; inhibition, % (no concentration beside the values);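 active = z-score of -3 or lower and OD600 up to 0.18 on both plates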;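 note: plate controls were untreated cells for no effect and reference antibiotic for full effect; stock transfer was 100 nL into about 80 µL; one replicate is shown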
Mtb hypoxia rep growth = also measured in Mtb hypoxia rep; calls as there; growth inhibition, %; measured here: M. tuberculosis growth (absorbance);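 0% = vehicle and 100% = reference antibiotic; read after six days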
Starred values were filed as active, the others as inactive; ? = inconclusive; . = no result given. Outcome played no part in choosing rows. Share with any hit: about 3.9%.

Values run as follows: PrP 5UTR inh	Autofluor counter	BJeLR viability	Mtb hypoxia rep	Mtb hypoxia rep growth	Sa ugtP lethal	Sa RN4220 lethal
- O=C(NN=C(Cc1ncc[nH]1)c1ccccc1)c1ccncc1
    .	.	.	-7.5	-4.0	9.2	11.0
- Cc1nc(CSc2nnc3scc(-c4ccc(Cl)cc4)n23)cs1
    -18.4	?	.	-1.3	0.3	2.4	12.6
- O=C(CCN1c2ccccc2Sc2ccccc21)OCc1nnc(-c2ccccc2)o1
    -12.7	4753	-5.9	.	.	3.1	8.4
- CC1CC(C)CN(C2CCN(Cc3cccnc3)CC2)C1 (centres undefined)
    9.9	2774	-1.6	.	.	2.7	-2.8
- O=C(NCCCN1CCOCC1)c1ccc(NS(=O)(=O)c2cccc([N+](=O)[O-])c2)cc1
    -16.8	5651	0.1	2.6	5.9	8.5	-0.1
- Cc1ccc(/C(N)=N/OC(=O)CCCc2ccccc2)cc1
    -25.5	5612	6.8	7.2	1.0	19.7	2.3
- Clc1ccccc1-c1nnc2sc(-c3ccco3)nn12
    -17.0	23775*	-4.7	5.4	-1.7	-0.9	2.4
- CC(C)(Oc1ccc(Cl)cc1)C(=O)NCc1ccco1
    -17.6	3469	-2.2	12.1	5.2	5.9	-9.4
- COc1ccccc1CCNC(=O)c1cc(COc2cccc(C(F)(F)F)c2)on1
    -7.4	5553	1.0	10.1	-9.0	-4.0	-2.1
- CCN(CC)CC(O)Cn1c2ccccc2c2ccccc21 (centres undefined)
    3.2	3695	2.7	.	.	-0.8	-2.5
- O=c1o[nH]c(-c2ccccc2)c1C1=NCCCCC1
    -6.5	3629	-0.9	5.5	9.9	-6.7	-1.0
- Cn1cc(P(=S)(N2CCOCC2)N2CCOCC2)cc1P(=O)(N1CCOCC1)N1CCOCC1
    -15.1	3342	-10.4	5.1	3.0	0.2	-1.1
- COCc1cc(C)nc2sc3c(=O)n(Cc4ccco4)nnc3c12
    9.6	4389	.	7.3	8.9	14.4	6.0
- COc1ccc(NC(=O)/C(C#N)=C\C=C\c2ccco2)cc1
    -14.4	1998	-3.5	-8.3	-4.8	-6.5	4.8
- CC1CCCC(NC(=O)CCNS(=O)(=O)c2ccc(Br)cc2)C1C (centres undefined)
    -25.8	3816	1.2	20.8	12.0	-7.0	2.5
- CC1(C)Cc2c(c(N3CCOCC3)nc3sc4c(=O)[nH]cnc4c23)CS1
    -1.0	3673	-1.0	13.7	7.6	-3.2	0.1
- COc1ccc(NC(=O)Nc2nnc(N3CCCCC3C)s2)cc1OC (centres undefined)
    -23.6	5312	2.7	0.0	9.9	7.8	0.7
- CCN(CC)CC(=O)Nc1ccccc1SCC(=O)Nc1ccsc1C(=O)OC
    -12.7	3368	-10.1	6.5	14.3	6.8	2.1
- O=C(Nc1ccc2c(c1)OCO2)C1CCCCC1
    -16.6	6456	-9.4	8.2	11.7	-1.4	1.1
- CCn1cc(C(=O)NCCN(C)CCc2ccccc2)c(=O)c2cc(S(=O)(=O)N(C)C)ccc21
    -8.9	22712*	-2.3	-4.8	-7.0	-4.2	2.6
- CCC(=O)Nc1ccc(NC(=O)C23CC4CC(CC(C4)C2)C3)cn1
    -37.1	2715	-2.7	2.7	9.7	-6.4	1.1
- CC(/C=N/NC(=O)c1ccncc1)=C\c1ccco1
    -34.9	4432	-2.5	.	.	.	.
- O=C(COC(=O)COc1ccccc1)Nc1ccc(S(=O)(=O)N2CCOCC2)cc1
    0.2	3329	0.7	11.1	4.3	-70.1	9.8
- O=C(COc1coc(CN2CCc3ccccc3C2)cc1=O)Nc1cccc(Cl)c1
    -25.4	?	-9.1	1.3	2.0	4.5	-2.4
- O=S(=O)(c1ccccc1)c1nc(-c2ccccc2)oc1NCc1cccnc1
    -5.9	2501	-7.3	3.8	5.7	16.6	21.4
- Cc1ccc(NC(=O)c2nnn(-c3cccc(C(F)(F)F)c3)c2N)cc1
    -26.5	3281	10.1	-4.5	-2.2	6.3	10.0
- COc1ccccc1NS(=O)(=O)c1cccc(NS(=O)(=O)c2ccc(Cl)c(C(=O)O)c2)c1
    -21.3	3795	.	5.6	15.8	6.6	2.1
- FC(F)(F)c1nc2ccccc2n2c(-c3ccc(Cl)cc3)nnc12
    25.9	2717	-9.9	.	.	-3.5	5.9
- O=C(NCCCN1CCOCC1)c1cccc(NS(=O)(=O)c2ccc(Br)cc2)c1
    -6.3	3984	.	5.9	-2.3	3.0	2.5
- CC1CCCC(NC(=O)COC(=O)/C=C/c2ccc(F)cc2)C1C (centres undefined)
    -25.4	3755	.	3.8	-5.0	-9.2	-1.5

Single records (already shown). Order of values: PrP 5UTR inh, Autofluor counter, BJeLR viability, Mtb hypoxia rep, Mtb hypoxia rep growth, Sa ugtP lethal, Sa RN4220 lethal
COc1ccccc1CCNC(=O)c1cc(COc2cccc(C(F)(F)F)c2)on1 as listed: -7.4, 5553, 1.0, 10.1, -9.0, -4.0, -2.1
O=C(NCCCN1CCOCC1)c1ccc(NS(=O)(=O)c2cccc([N+](=O)[O-])c2)cc1 as listed: -16.8, 5651, 0.1, 2.6, 5.9, 8.5, -0.1
COc1ccc(NC(=O)/C(C#N)=C\C=C\c2ccco2)cc1 as listed: -14.4, 1998, -3.5, -8.3, -4.8, -6.5, 4.8

Carrying on.
Values run as follows: PrP 5UTR inh	Autofluor counter	BJeLR viability	Mtb hypoxia rep	Mtb hypoxia rep growth	Sa ugtP lethal	Sa RN4220 lethal
- N#CC1(Nc2ccccc2)C(=O)Nc2ccccc21 (centres undefined)
    -2.1	4300	-0.9	55.8*	20.7*	-3.1	-4.0
- O=C(O)CCCCCNc1nc(-c2ccccc2)nc2ccccc12
    -12.8	3594	2.1	19.7	5.6	3.4	2.2
- CN(C)c1ccc(C=NNc2nc(-c3ccccc3)cc(=O)[nH]2)cc1
    .	.	.	-6.1	3.8	-17.6	-2.9
- O=C(NCC(=O)N1CCN(c2ccccc2)CC1)c1ccccc1
    -9.6	3332	-7.9	-5.2	-3.9	5.8	1.0
- COC(=O)c1ccc(COc2ccc(C=O)cc2)o1
    -25.1	3502	-9.2	20.5	14.4	0.3	3.9
- O=C(NCCCn1cccn1)C1CCC(=O)N(CCc2ccccc2)C1 (centres undefined)
    0.9	5520	2.9	-3.5	6.2	8.0	1.3
- CCOC(=O)N1CCN(Cc2c(F)cccc2Cl)CC1
    -25.0	9695	3.9	6.3	10.4	9.9	4.6
- Cn1ncc(SCc2ccccc2)c(Cl)c1=O
    -1.1	6283	4.9	1.4	-3.0	2.5	3.2
- CNC(=O)c1c(NC(=O)c2ccco2)sc(C)c1C
    11.7	?	-5.2	-4.1	-3.0	2.8	2.6
- O=C(NCc1cccc(F)c1)c1ccc(N2C(=O)Cn3c(cc4sccc43)C2=O)cc1
    -2.4	2186	-6.4	.	.	.	.
- CCOc1ccccc1NC(=O)CNC(=O)c1nn(-c2ccc(OC)c(OC)c2)c(=O)c2ccccc12
    -5.8	4085	-0.6	-4.3	3.1	0.8	6.2
- COc1cc2c(cc1OC)C(C(=O)Nc1ccc(F)c(Cl)c1)CC(=O)N2 (centres undefined)
    -11.0	3299	-1.5	13.6	2.7	1.1	7.1
- COc1ccc(Cl)cc1NC(=O)CN(C)C(=O)C1COc2ccccc2O1 (centres undefined)
    2.2	3818	.	-4.6	4.4	-1.0	2.3
- CCc1ccccc1NC(=O)Nc1ccc(F)cc1
    -23.8	1980	-1.5	4.0	-0.9	-0.1	1.9
- CC(=NNc1ccc(S(N)(=O)=O)cc1[N+](=O)[O-])c1cccnc1
    .	.	.	-0.2	3.6	-0.7	5.1
- COc1cc2c(cc1OC)C(C(=O)NC(C)c1ccccc1)CC(=O)N2 (centres undefined)
    -12.6	3912	4.6	12.0	12.4	6.1	2.8
- O=C(CCc1nc(-c2cccs2)no1)NCc1ccc(F)cc1Cl
    -16.3	6316	2.8	2.7	-2.3	2.1	1.8
- CC(Sc1ncccn1)C(=O)Nc1ccc2c(c1)OCO2 (centres undefined)
    -21.9	8518	.	8.9	9.3	-1.2	-3.8
- COc1ccc(C(CC(=O)c2ccccc2)CC(=O)c2ccccc2)cc1
    0.7	6161	5.8	13.8	-0.7	18.2	0.4
- COc1ccccc1C(O)(C(=O)NN(C(=O)c1ccccc1)c1ccccc1C)c1cccs1 (centres undefined)
    -16.4	2220	.	.	.	-1.8	0.9
- CCc1ccc(CN2CCN(c3ncccn3)CC2)cc1
    -33.6	3994	1.8	10.4	4.5	6.6	3.6
- CCN(c1ccccc1)S(=O)(=O)c1ccc(C(=O)N(CCCN(C)C)c2nc3c(C)cccc3s2)cc1
    -25.7	4334	4.9	3.4	-6.8	2.8	-3.6
- COc1ccccc1C(=O)C1CCCN(C(=O)c2cccnc2SC)C1 (centres undefined)
    -15.4	3755	-1.6	8.4	8.5	5.1	2.0
- CCOC(=O)Nc1ccc(C)cc1Br
    -21.9	3823	-1.6	4.3	4.7	1.1	5.0
- C=C(C)C1CC=C(C)/C(=N/NC(=O)COc2ccc(C)cc2)C1 (centres undefined)
    -32.0	21182*	4.9	.	.	.	.
- Cc1ccc(NC(=O)COC(=O)C2=NNC(=O)CC2)c(Br)c1
    .	.	.	8.7	8.1	3.7	1.9
- CCOc1ccc(-c2cc(CCCC(=O)NCCC(C)C)no2)cc1
    -9.9	2425	-2.0	4.7	2.0	16.9	1.9
- CCOC(=O)C1C2COc3ccc(C)cc3C2N2C(=O)CN(Cc3ccc(F)cc3)C(=O)[C@@]12C (some centres undefined)
    .	.	.	3.4	6.3	11.2	2.7
- O=C(CN(Cc1ccccc1Cl)C(=O)CN1C(=O)CSc2ccccc21)NC1CC1
    -6.6	3136	-2.3	2.9	1.0	1.3	17.4
- CC1=CS/C(=C(/C#N)C(=O)N2CCOCC2)N1c1ccccc1
    -14.7	2726	5.1	.	.	.	.

Values run as follows: PrP 5UTR inh	Autofluor counter	BJeLR viability	Mtb hypoxia rep	Mtb hypoxia rep growth	Sa ugtP lethal	Sa RN4220 lethal
- CCN1CCN(CCOCCOc2ccccc2)CC1
    -8.2	4648	-6.3	9.6	3.5	-0.2	1.9
- Cc1ccc(C(C(=O)NC2CCCC2)N(C(=O)CCC(=O)Nc2cc(C)on2)c2ccccc2)cc1 (centres undefined)
    -15.7	8598	0.3	7.0	9.9	-3.5	1.3
- Cc1ccc(C)c(NS(=O)(=O)c2ccc(OCC(=O)N3CCCC3)cc2)c1
    -21.2	8130	12.4	3.7	1.0	13.3	7.2
- CN(C)CC1C2CCC(C2)C1O (centres undefined)
    -20.9	4115	.	2.6	5.7	0.6	-1.9
- CC(C)(C)C(C(=O)n1cccc1C#N)c1ccccc1 (centres undefined)
    1.2	3998	.	11.9	6.3	3.5	7.1
- Cc1ccc(S(=O)(=O)Nc2c(C(=O)O)[nH]c3ccccc23)cc1C
    -8.5	5186	12.3	6.3	2.4	15.7	6.0
- COC(=O)CCCC1=CC2=CC(=O)C(C)(OC(=O)c3cccs3)C(=O)C2=CN1C1CCCC1 (centres undefined)
    -31.5	3032	-8.5	-1.6	-4.3	-2.8	9.5

Source: PubChem (several laboratories)
